VDR inhibitor: vitamin D3 receptor (human) inhibition. Potency, µM, for the others: max response, negative = inhibition, most hits filed as inhibitors. 0.93% of 400,000 active. VDR-SRC2-3 peptide fluorescence polarization, 2 h; active means well fitted inhibition curve with a large enough effect; inconclusive means small, poorly fitted or top-dose-only effect, or another doubt; inactive means no such curve, though single readings can be large or run the other way; further: series mostly up to about 120 µM
Target sequence (P11473 whole entry, looked up): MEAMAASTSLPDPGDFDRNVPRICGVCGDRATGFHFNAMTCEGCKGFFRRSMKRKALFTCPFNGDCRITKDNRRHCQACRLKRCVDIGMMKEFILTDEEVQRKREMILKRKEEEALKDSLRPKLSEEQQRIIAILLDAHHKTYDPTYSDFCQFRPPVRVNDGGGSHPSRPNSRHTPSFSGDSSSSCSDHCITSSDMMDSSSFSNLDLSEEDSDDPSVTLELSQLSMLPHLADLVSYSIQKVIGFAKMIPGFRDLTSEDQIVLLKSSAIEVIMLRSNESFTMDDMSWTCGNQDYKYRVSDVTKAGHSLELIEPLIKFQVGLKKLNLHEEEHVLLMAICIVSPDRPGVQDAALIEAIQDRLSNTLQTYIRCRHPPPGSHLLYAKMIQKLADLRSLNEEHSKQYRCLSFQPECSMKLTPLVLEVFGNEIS
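Compounds are added to VDR with labelled SRC2-3 coactivator peptide and held 2 h at room temperature. Inhibition of the VDR–peptide interaction is then read as a change in fluorescence polarization.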
The depositor's hits bear a star; ? = inconclusive; & = joins results of further samples; [ ] = remark or other dose. On the % scale 0 is the no-effect control and ±100 the full control effect; potency means the concentration at half of the fitted maximal effect. An excerpt; rates above refer to the full screens.

The first 4 compounds, to show the layout:
| VDR inhibitor | Molecule |
| --- | --- |
| -5% | NS(=O)(=O)c1ccc(NS(=O)(=O)c2ccc3c(c2)OCCO3)cc1 |
| 8% | Cc1cc(=O)c2c(C)ccc(C)c2[nH]1 |
| -12% | Cc1ccc(CNc2ccc(N3CCOCC3)c(C(=O)O)c2)s1 |
| 3% | O=C(COc1ccccc1[N+](=O)[O-])NNC(=O)Nc1cccc2ccccc12 |

The list itself, from the start:
| VDR inhibitor | Molecule |
| --- | --- |
| -5% | NS(=O)(=O)c1ccc(NS(=O)(=O)c2ccc3c(c2)OCCO3)cc1 |
| 8% | Cc1cc(=O)c2c(C)ccc(C)c2[nH]1 |
| -12% | Cc1ccc(CNc2ccc(N3CCOCC3)c(C(=O)O)c2)s1 |
| 3% | O=C(COc1ccccc1[N+](=O)[O-])NNC(=O)Nc1cccc2ccccc12 |
| ? | CCOC(=O)C1CCN(C(=O)c2ccccc2NS(=O)(=O)c2ccccc2)CC1 |
| -6% | CCCCCCCCOC(=O)c1c(CSC(=N)N)n(C)c2cc(Br)c(OC(C)=O)cc12 |
| 4% | CC(=O)Nc1ccc(S(=O)(=O)N2CCN(c3ccc(C)c(C)c3)CC2)cc1 |
| 1% | COc1ccc(/C=C/C(=O)Nc2sc3c(c2C(N)=O)CCC(C)C3)cc1OC (stereo unspecified) |
| 126µM* | Cc1ccc(C)c(-c2ccc(C(=O)O)o2)c1 |
| 7% | CCCOc1ccc(CNC(=S)Nc2ccccc2)cc1Cl |
| 5% | O=C1CCC(C(=O)NCc2ccccc2)N1 (stereo unspecified) |
| 2% | Cc1ccccc1C(=O)NCC(=O)OCCCOC(=O)CNC(=O)c1ccccc1C |
| -17% | O=C(N/N=C/c1cccs1)/C(=C/c1ccccc1)NC(=O)c1ccccc1 |
| 30% | CC(=O)c1ccc(N(C(=O)Cn2nnc3ccccc32)C(C(=O)NC2CCCCC2)c2cn(C)nc2C)cc1 (stereo unspecified) |
| 2% | O=C(COC(=O)[C@@H]1CCCN1C(=O)c1cccs1)Nc1cccc([N+](=O)[O-])c1 |
| -5% | O=C(NC1CC(=O)c2sccc21)c1cccc(C(F)(F)F)c1 (stereo unspecified) |
| -5% | NC(=O)C1=C[C@@H](c2ccccc2)C[C@@H](OCc2ccc(CO)cc2)O1 |
| -6% | CCCCN(CC)C(=O)c1nn(-c2ccc(OC)cc2)c(=O)c2c1c1ccccc1n2C |
| 9% | CC(=O)c1cccc(NC(=O)N2CCOCC2)c1 |
| 5% | CC(=O)NC(NC(=S)Nc1cccc(Br)c1)C(Cl)(Cl)Cl (stereo unspecified) |
| 16% | CCOC(=O)C1CCN(C(=O)Cn2ncc3c4ccccc4n(Cc4ccccc4)c3c2=O)CC1 |
| 10% | Cc1cc(O)c(C(c2ccc(Cl)cc2)N2CCN(c3ccccc3)CC2)c(=O)n1Cc1ccco1 (stereo unspecified) |
| 13% | CC(C)(C)NS(=O)(=O)c1ccc2c(c1)oc(=O)c1cc(S(=O)(=O)NC(C)(C)C)ccc12 |
| 7% | O=c1nc(N2CCOCC2)nc2n1CCO2 |
| -1% | COc1ccccc1N(CC(=O)NCc1ccccc1C)S(=O)(=O)c1ccc(C)cc1 |
| 0% | CN(C)Cc1ccccc1-c1cncnc1Nc1ccc(F)cc1 |
| -8% | COc1ccc([N+](=O)[O-])cc1Nc1ncnc2ccccc12 |
| -4% | Cc1ccc(S(=O)(=O)N(CCC(=O)NCc2ccccc2F)c2ccccc2)cc1 |
| 16% | CCCNC(=O)N1CCC(c2ccc3c(c2)OCO3)CC1 |
| 0% | O=c1[nH][nH]c(-c2ccccc2)c1C=Nc1cccc(Cl)c1 |

Four entries from above, field by field:
mol: NC(=O)C1=C[C@@H](c2ccccc2)C[C@@H](OCc2ccc(CO)cc2)O1
  VDR inhibitor: -5%
mol: CCCCN(CC)C(=O)c1nn(-c2ccc(OC)cc2)c(=O)c2c1c1ccccc1n2C
  VDR inhibitor: -6%
mol: CC(=O)c1cccc(NC(=O)N2CCOCC2)c1
  VDR inhibitor: 9%
mol: CC(=O)NC(NC(=S)Nc1cccc(Br)c1)C(Cl)(Cl)Cl (stereo unspecified)
  VDR inhibitor: 5%

New compounds follow:
| VDR inhibitor | Molecule |
| --- | --- |
| 22% | CC(C)NC(=O)C12CC3CC(C1)CC(C(=O)NC(C)C)(C3)C2 |
| 35%[activator] | CCOC(=O)CC(NS(=O)(=O)c1ccc2[nH]cc(C(=O)O)c(=O)c2c1)c1ccc(OCC)c(OC)c1 (stereo unspecified) |
| -25% | NC(=O)CN1C(=O)C(=O)N(Cc2ccc(Cl)cc2)C1=O |
| 5% | CCCCCC(=O)Nc1nc(C)c(-c2csc(Nc3cc(Cl)ccc3C)n2)s1 |
| -8% | C/C(=N\NC(=O)c1ccc(-c2ccccc2)cc1)c1ccco1 |
| 6% | COc1cccc(C(=O)NCCN2CCN(c3ccccc3)CC2)c1 |
| 11% | COc1ccc(/C=C/c2c(-c3ccc(OC)cc3)sc3cc(OC)c(OC)cc23)cc1 |
| 39%[activator] | O=C(CCn1nnc2ccccc21)OCC(=O)c1ccc(F)cc1 |
| -5% | Fc1ccc(-n2cc(CNCCc3cccnc3)c(-c3ccccc3Cl)n2)cc1 |
| 8% | N#C/C(=C(/O)COC(=O)c1ccc2c(c1)OCCO2)c1nc2ccccc2[nH]1 |
| 12% | CCOC(=O)c1ccc(S(=O)(=O)N2CCN(C3CC(=O)N(c4ccc(OC)cc4)C3=O)CC2)cc1 (stereo unspecified) |
| 5% | CC(C)(C)NC(=O)c1cc(NC(=O)c2ccco2)cc(NC(=O)c2ccco2)c1 |
| -12% | COc1ccc(Cc2nnc(NC(=O)c3ccccc3F)s2)cc1OC |
| 4% | COCCN(C(=O)C1CCC1)c1c(N)n(CC(C)C)c(=O)[nH]c1=O |
| -13% | C#CCSc1nsc(SCC#C)c1C#N |
| -1% | CCn1ncc([N+](=O)[O-])c1C(=O)Nc1cc(C)on1 |
| -13% | O=C(CSc1nnc2ccccn12)N1CCOCC1 |
| -10% | Cc1ccc(CNS(=O)(=O)c2c(C(=O)N3CCCCC3)c(C)n(C)c2C)o1 |
| ? | Cc1ccc(N(Cc2cc3ccc(C)cc3[nH]c2=O)C(=O)c2ccco2)c(C)c1 |
| 8% | CCOc1ccccc1CNCc1ccc(C(=O)O)cc1 |
| 1% | Cc1ccc(S(=O)(=O)N2CCCCC2)cc1C(=O)Nc1ccccn1 |
| -9% | COc1ccccc1NS(=O)(=O)c1cc(C(=O)NCC(c2cccs2)N2CCOCC2)ccc1C (stereo unspecified) |
| -1% | N#Cc1cc2c(=O)n3ccccc3nc2n(-c2nnc(SCc3ccccc3Cl)s2)c1=O |
| -5% | CCN1C(=O)C(CC(=O)Nc2ccc(OC)cc2)N(Cc2ccc(OC)c(OC)c2)C1=S (stereo unspecified) |
| -6% | Cc1noc(C)c1C(=O)N(C)CC(=O)Nc1ccc(F)c(F)c1F |
| -8% | COc1ccc(CCNC(=O)CCc2nnc(Cc3ccc4c(c3)OCO4)o2)cc1 |
| 12% | COc1ccc(S(=O)(=O)N2CCn3c2nc2ccccc23)cc1 |
| -20% | Cc1cccn2c(=O)c(/C=C(\C#N)S(=O)(=O)c3ccccc3)c(N3CCCCC3)nc12 |
| 10% | COc1cccc(N2CC(NC(=O)c3ccco3)CC2=O)c1 (stereo unspecified) |
| -5% | Cn1c(SCC(=O)NCCc2ccccc2)nnc1-c1ccco1 |
| -14% | CCCCC[C@H](O)/C=C/[C@@H]1[C@@H](C/C=C\CCCC(=O)OC)[C@@H](O)C[C@H]1O |
| 1% | O=C(NCc1ccccc1F)c1ccc(S(=O)(=O)NCc2ccco2)cc1 |
| -5% | COc1cc(Cn2c(C(=O)O)cc3sccc32)cc(OC)c1OC |
| -6% | O=C1C=C(c2cccc(Cl)c2)C[C@@H](c2ccc(Cl)cc2)C1 |
| -17% | Cc1ccc(-n2cc(-c3ccccc3)nc2S(=O)(=O)CC(=O)Nc2ccc(F)cc2)cc1 |
| -10%&1% | Cc1ccc2oc(C(=O)Nc3ccc(S(=O)(=O)Nc4onc(C)c4C)cc3)cc(=O)c2c1 |
| -26% | COc1ccc(N(CC(=O)N2CCCCC2)S(=O)(=O)c2c(C)nn(C)c2C)cc1 |
| 1% | Cc1ccc(C)c(OCCOCCn2c(-c3ccc(Br)cc3)nc3ccccc3c2=O)c1C |
| -12% | N#Cc1ccc(COC(=O)c2cnc3ccccc3n2)cc1 |
| 8% | O=C(Nc1ccccc1Cl)C1CCN(S(=O)(=O)c2cccc3nonc23)CC1 |
| -4% | C=C(C)C1Cc2c(C)nn(-c3cccc4ccccc34)c2C1 (stereo unspecified) |
| -2% | CC(C)C1CC(c2csc(N)n2)CCO1 (stereo unspecified) |
| -8% | CC1CCC2(CC1)NC(CO)(CO)CO2 (stereo unspecified) |
| 7% | FC(F)(F)c1cccc(-c2cc(C3CCNCC3)[nH]n2)c1 |
| 5% | O=C(Nc1cc(NC(=O)c2ccccc2F)ccc1Cl)c1ccccc1 |
| 17% | COC(=O)[C@H](Cc1ccccc1)N(Cc1ccccc1)S(=O)(=O)N(Cc1ccccc1)[C@@H](Cc1ccccc1)C(=O)OC |
| 23% | CCOC(=O)C(C#N)(Cc1ccc2ccccc2n1)Cc1ccc2ccccc2n1 |
| -5% | COc1cc(NS(=O)(=O)c2csc(C(N)=O)c2)cc(OC)c1 |
| 8% | Cc1nc2nc3c(c(=O)n2[nH]1)CCCC3 |
| -24% | Cn1c(=O)oc2cc(S(=O)(=O)N3CCN(c4ccccn4)CC3)ccc21 |
| 1% | CC(=O)Nc1ccc(S(=O)(=O)Oc2cccc(N3C(=O)C4CC=CCC4C3=O)c2)cc1 (stereo unspecified) |
| -1% | O=C(Nc1ccccc1)c1nc[nH]c1C(=O)NCCCCCCNC(=O)c1[nH]cnc1C(=O)Nc1ccccc1 |
| -7% | CCOC(=O)c1cccc(NC(=O)CSc2nnc(COc3ccccc3C)o2)c1 |
| -2% | C=C1CCC2[C@](C)(CO)[C@H](O)CC[C@@]2(C)[C@@H]1C/C=C1/C(=O)OC[C@H]1O (stereo partly specified) |
| -24% | Cc1ccc(-c2nnc(Cc3ccc([N+](=O)[O-])cc3)o2)cc1 |
| -1% | CCC(C)[C@H](N)c1cn([C@@H](Cc2cc3ccccc3[nH]2)C(=O)N2CCNCC2)nn1 (stereo partly specified) |
| -2% | Cc1cc(C)c(S(=O)(=O)N(C)CC(=O)NC2CCCC2)c(C)c1 |
| -8% | CC1=C(C(=O)Nc2ccc(C)cc2C)C(c2ccc(O)cc2)n2nnnc2N1 (stereo unspecified) |
| 14% | COc1ccc(OC)c(NC(=O)C2COc3ccccc3O2)c1 (stereo unspecified) |
| 18µM* | Cc1cc(C(=O)CCl)c(C)n1CCc1ccc(Cl)cc1 |

Retrieved by compound from above (two):
| VDR inhibitor | Molecule |
| --- | --- |
| 23% | CCOC(=O)C(C#N)(Cc1ccc2ccccc2n1)Cc1ccc2ccccc2n1 |
| -17% | Cc1ccc(-n2cc(-c3ccccc3)nc2S(=O)(=O)CC(=O)Nc2ccc(F)cc2)cc1 |

(list continues)
| VDR inhibitor | Molecule |
| --- | --- |
| -6% | CCOCc1cc(=O)[nH]c(SC)n1 |
| ? | COc1ccc(-n2c(-c3ccc(Cl)cc3Cl)n[nH]c2=S)c(OC)c1 |
| -13% | Cc1cc2nccc(-c3ccco3)n2n1 |
| 0% | Cc1c(NC(=O)C(C)OC(=O)c2cc3c4ccccc4n(C)c3s2)c(=O)n(-c2ccccc2)n1C (stereo unspecified) |
| -21% | O=C1C=C(Nc2cccnc2)c2ccccc2C1=O |
| -1% | Oc1ccc(Br)cc1/C=N/N1CCN(Cc2cccc3ccccc23)CC1 |
| 7% | N/C(=N\OS(=O)(=O)c1ccc2ccccc2c1)c1ccccn1 |
| -1% | O=C(CSc1nnc(SCc2ccccc2)s1)N/N=C/C=C/c1ccccc1[N+](=O)[O-] |
| -10% | COc1ccc2[nH]c(C(=O)N/N=C/c3cc(OC)c(OC)c(OC)c3)cc2c1 |
| -6% | CC1(C)Cc2c(sc(NC(=O)C(=O)N3CCCC3)c2C#N)CO1 |
| -10% | COC(=O)c1ccccc1NC(=O)NCc1ccco1 |
| -5% | CC1(C)NC(=O)N(CCCCOc2ccc(Br)cc2Cl)C1=O |
| -2% | Cc1[nH]c2ccc(-c3n[nH]c(=S)n3Cc3ccccc3)cc2c1C |
| -16% | COc1ccc2cc(C#N)c(SCC(=O)N3CC(=O)Nc4ccccc43)nc2c1 |
| 1% | Cc1ccc(NC(=O)CCC(=O)NNC(=O)c2ccco2)c(C)c1 |
| 2% | O=C(Cc1ccccc1)Nc1ccc(NC(=O)c2ccco2)cc1 |
| -1% | COc1ccc(NC(=O)c2sc3ncn(CC(=O)N4CCN(c5ccccn5)CC4)c(=O)c3c2C)cc1OC |
| 2% | Cc1sc2ncn(CC(=O)NCCCC(=O)Nc3ccc(C(C)C)cc3)c(=O)c2c1C |
| -1% | O=C(NCCN1CCOCC1)c1cccc(S(=O)(=O)Nc2ccc(Br)cc2)c1 |
| 4% | CC(=O)N1CCN(C(=O)C(Cc2c[nH]c3ccccc23)NC(=O)c2ccccc2Cl)CC1 (stereo unspecified) |
| 6% | COc1cc(NC(=O)CCn2nc(C)c(S(=O)(=O)N3CCCCC3)c2C)cc(OC)c1OC |
| 14% | CC1C(=O)N(Cc2ccc([N+](=O)[O-])cc2)c2ccccc2N1C(=O)C1CC1 (stereo unspecified) |
| 1% | c1ccc(OCCCn2ccnc2)cc1 |
| 7% | O=C(CN1CCN(c2ccccn2)CC1)Nc1cc(C(F)(F)F)ccc1Cl |
| -18% | O=C(CSCc1cccc(Cl)c1)Nc1ccccc1-c1ccccc1 |
| -16% | N#Cc1c(N)n(CCNC(=O)c2ccc(Cl)cc2)c2nc3ccccc3nc12 |
| 5% | O=C(CCc1nnc2ccc(NCc3ccco3)nn12)Nc1cc(F)ccc1F |
| -7% | O=C(CC1CCCCC1)N1CCCC(c2nc(-c3ccc(S(=O)(=O)N4CCCC4)cc3)no2)C1 (stereo unspecified) |
| 2% | CC(C)(C)CN1CCC(Oc2cccc(C(=O)N3CCNC(=O)C3(C)C)c2)CC1 |
| -26% | COc1cc(C=NOC(=O)Nc2ccccc2)cc(OC)c1OC |
| 8% | CCCCCCC(=O)NNC(=O)CC(=O)Nc1ccccc1C(=O)O |
